Bioassay records (PubChem BioAssay)
RecA intein inh – blocks M. tuberculosis RecA intein splicing | inhibition, %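 (about 9 µM by stock and volumes)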 | P9WHJ3 | 290,000 tested, 0.75% active | cell-free RecA intein splicing, fluorescence; in the data active = inhibition above about 30%; inconclusive = no clear call, values can overlap the other calls;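 note: 0% = vehicle wells and 100% = reference inhibitor control wells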
Target sequence (P9WHJ3 whole entry, looked up): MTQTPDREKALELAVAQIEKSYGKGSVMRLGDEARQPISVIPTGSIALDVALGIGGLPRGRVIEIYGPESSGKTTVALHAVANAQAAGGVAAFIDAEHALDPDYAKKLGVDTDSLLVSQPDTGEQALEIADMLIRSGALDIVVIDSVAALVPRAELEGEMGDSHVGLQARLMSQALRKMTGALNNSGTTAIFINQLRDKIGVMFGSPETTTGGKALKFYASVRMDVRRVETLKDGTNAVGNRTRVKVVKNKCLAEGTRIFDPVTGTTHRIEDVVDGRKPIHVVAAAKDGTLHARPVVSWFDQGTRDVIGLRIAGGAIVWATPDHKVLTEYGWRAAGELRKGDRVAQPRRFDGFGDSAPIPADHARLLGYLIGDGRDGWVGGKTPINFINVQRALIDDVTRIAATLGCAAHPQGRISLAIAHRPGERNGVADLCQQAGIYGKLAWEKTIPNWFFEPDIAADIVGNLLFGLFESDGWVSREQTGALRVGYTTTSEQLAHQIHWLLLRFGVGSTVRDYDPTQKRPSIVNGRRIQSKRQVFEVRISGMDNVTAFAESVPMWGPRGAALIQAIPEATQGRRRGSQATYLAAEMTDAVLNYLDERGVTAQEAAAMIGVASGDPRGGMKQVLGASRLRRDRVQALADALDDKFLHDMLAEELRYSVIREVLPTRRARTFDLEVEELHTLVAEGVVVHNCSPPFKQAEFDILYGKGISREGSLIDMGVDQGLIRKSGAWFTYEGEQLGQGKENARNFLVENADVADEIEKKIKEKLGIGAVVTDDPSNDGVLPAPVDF
Mtb H37Rv – M. tuberculosis H37Rv growth inhibitors, H37Rv strain (AID 1626); M. tuberculosis H37Rv growth inhibition; higher % means a stronger effect; inhibition, % at 10 µM; hits with a dose series show IC50 in µM; 220,000 tested, 0.95% active;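 active = confirmed in a dose series; inconclusive = inhibition above 80% but not taken into the dose series; inactive = below 80% or under 30% at every dose of the series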;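 note: bacteria incubated seven days before Alamar blue readout; 0% = bacteria only wells and 100% = bacteria with antibiotic wells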
YopH PTP inh – YopH (Yersinia) phosphatase inhibition | fluorescence Ex485/Em525 | inhibition, %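 (about 10 µM by stock and volumes)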 | 140,000 tested, 0.16% active | AID 898;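 active = inhibition of 50% or more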;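 note: controls were vehicle for no effect and minimum signal wells for full effect; inactives centre near -20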
Arbovirus anti – antivirals against arbovirus infection; arbovirus infection cell-based antiviral screen; inhibition, % at 10 µM; 200,000 tested, 0.37% active;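 active = inhibition from about 30%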;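 note: bluetongue infection of BSR cells; cell survival read as ATP light after 72 h; 0% = infected wells without compound and 100% = uninfected wells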
Mtb bLac sens – beta-lactam sensitization of Mtb H37Rv. M. tuberculosis H37Rv growth with meropenem, percent inhibition; hits of this screen are not shown here. AID 434955. inhibition, % at 25 µM. 330,000 tested, 0.27% active;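 active = about 74% or more and at least 40 points above the plate without the antibiotic, then above 30% in a dose series; inconclusive = first-round hits that could not be retested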;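 note: growth measured after seven days incubation then overnight dye step; 0% = bacteria only wells and 100% = bacteria with antibiotic; twin plates without the antibiotic show which effects depend on it; some results filed as inactive read as strong as hits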
Arbovirus anti repeat – second read-out of Arbovirus anti, no call of its own (marks repeat the call); inhibition, %; measured here: 10K subset replicate screen; many hits read low in the repeat;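 first of two repeat runs on a subset; 0% = infected and 100% = uninfected wells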
The depositor's hits bear a star; i = inactive; ? = inconclusive; . = no result given. The list is partial. The share of hits here may be higher or lower than overall.

SMILES	RecA intein inh	Mtb H37Rv	YopH PTP inh	Arbovirus anti	Mtb bLac sens	others
COC(=O)c1ccc(NC(=S)NCCCn2ccnc2)cc1	1.0	-2%	.	0	-7
CC(=O)NCCC(=O)Nc1nc(C)c(Cc2ccc3c(c2)OCO3)s1	-0.8	10%	-41	8	0
CC(=O)Nc1sc2c(c1CN1CCCC1)CCCC2	-0.2	-3%	.	.	2
Cc1nnc(NCc2cccc(Cl)c2)c2ccccc12	0.3	.	.	.	22
CC(=O)c1ccc(NC(=O)C(C)OC(=O)c2ccc(NS(=O)(=O)c3ccc(F)c(F)c3)cc2)cc1 (stereo not drawn)	1.9	-6%	-46	5	-16
CC1CCCCN1C(=O)c1ccc(CS(=O)(=O)Cc2ccccc2)cc1 (stereo not drawn)	-1.0	.	.	.	-6
O=C(NCc1ccc(F)cc1)C1CC(=O)N(C2CCCCCCC2)C1 (stereo not drawn)	2.7	.	.	.	-3
CC12CCC(C(=O)Nc3cc(Cl)ccc3Cl)(C/C1=N\O)C2(C)C (stereo not drawn)	7.1	0%	-124	5	-5
Cc1csc(NC(=O)C2CCCC2)n1	-2.0	-12%	1	0	-6
O=C(O)/C=C/c1ccccc1Oc1ccc(Cl)cc1Cl	6.8	6%	.	21	-3
O=C(Cc1coc2ccc3ccccc3c12)NCc1cccs1	3.9	3%	-16	3	6
Nc1ccccc1Nc1cc(-c2ccccc2)[nH]n1	7.6	>100µM*	.	-6	.
C=CCN(c1ccc(C(=O)Nc2cccc(C)c2)cc1)S(C)(=O)=O	-2.0	0%	.	-3	-8
CCCCNCc1cc(Br)c(OCC(=O)N2CCOCC2)c(OC)c1	1.6	-1%	-55	-1	-12
Cc1ccc2nc(Nc3nc(CSc4nc5ccccc5s4)cc(=O)[nH]3)nc(C)c2c1	5.2	.	6	1	99
Fc1ccc(/C=C2\CCCC3=C2NC(=S)NC3c2ccc(F)cc2)cc1 (stereo not drawn)	.	0%	-23	8	.
CCN1CCN(Cc2c(O)ccc3c(C)cc(=O)oc23)CC1	-29	.	.	.	0
N=c1n(CCO)c2ccccc2n1Cc1ccc(Cl)cc1	-0.4	8%	-19	-13	-5
CCOc1ccccc1C1C2C(=O)N(c3ccccc3)C(=O)C2ON1c1ccccc1 (stereo not drawn)	-0.9	-10%	-34	3	17
COC(=O)c1cccnc1-n1c(=O)c2cccnc2n(Cc2cccc(C(F)(F)F)c2)c1=O	0.0	0%	.	-2	-1
COC(=O)c1ccc2c(=O)n(CC3CCCO3)c(SCC(=O)Nc3ccc(OC)cc3OC)nc2c1 (stereo not drawn)	0.8	-6%	.	.	-7
c1ccc(Cc2nnc3sc(-c4cccs4)nn23)cc1	1.4	5%	-30	-3	12
CCOC(=O)c1cn(CC(=O)Nc2cccc(Cl)c2C)nn1	-0.4	1%	-37	7	-1
Cc1noc(C)c1S(=O)(=O)N(CC(=O)NC(C)c1ccccc1)c1ccc(C(C)C)cc1 (stereo not drawn)	-1.3	.	.	.	-5
COc1cccc(/C=N/n2cnc3cc(C)c(C)cc32)c1OC	-0.1	46%	.	.	75
O=C(C1=C[C@@H](c2ccc(C(F)(F)F)cc2)C[C@@H](OCc2ccc(CO)cc2)O1)N1CCOCC1	0.2	10%	.	4	-2
O=C(CCNS(=O)(=O)c1ccccc1)NNC(=O)C1COc2ccccc2O1 (stereo not drawn)	-1.0	.	.	.	2
COC(=O)Cn1c(=NC(=O)CCS(=O)(=O)c2ccccc2)sc2c(OC)ccc(OC)c21	-1.8	.	.	.	-2
CCc1nnc(NC(=O)C2CC(=O)N(Cc3ccco3)C2)s1 (stereo not drawn)	0.7	-16%	-42	8	-8
O=C(CSc1nnc(-c2ccccc2F)n1CCc1ccccc1)Nc1ccc2[nH]c(=O)[nH]c2c1	5.9	0%	-7	9	4
CCSc1nc2ccccc2n1CCOc1ccccc1	10	6%	-15	-2	16
Cc1ccoc1C(=O)NCCCNC(=O)c1occc1C	3.4	-1%	-53	3	1
O=C(CCCSc1nc2sc3c(c2c(=O)[nH]1)CCC3)NCCCO	-0.1	-8%	-5	0	-6	Arbovirus anti repeat=1
Nc1c(-c2ccccc2)c(CN2CCOCC2)nn1-c1cccc([N+](=O)[O-])c1	0.9	2%	.	4	-3
CCOc1ccc(S(=O)(=O)NCc2ccncc2)cc1NC(=O)c1ccccc1F	-2.3	.	.	.	-4
CC1=NN2C(=N)/C(=C\c3ccc(SCc4ccccc4)o3)C(=O)N=C2S1	-2.8	-3%	-20	35*	0
COc1ccc(C(=O)Nc2ccc(S(=O)(=O)N3CCCC3)cc2)c(OC)c1	8.6	-3%	-19	6	-4
O=C1CC(N2CCC(O)(c3ccc(Cl)cc3)CC2)C(=O)N1 (stereo not drawn)	20	4%	-29	2	-16
COc1ccc(OC)c(-c2cc(C3CCN(c4cc(Cl)nc(N)n4)CC3)[nH]n2)c1	-5.6	.	-8	3	43
CCC(C)(C)n1nnnc1CN(Cc1cccs1)Cc1cc2cc(OC)ccc2[nH]c1=O	0.8	10%	.	-3	4
Cc1cccnc1NC(=O)C1c2ccccc2Oc2ccccc21	-1.2	-3%	-19	-2	-4
Nc1c(C(=O)c2ccccc2)sc2nsc(SCCN3CCCC3)c12	-6.1	6%	.	.	47
COC(=O)c1cc(C)nc(Sc2ccccc2N)n1	-0.7	1%	.	.	-6
NC(=O)c1cn(C2OC(CO)C(O)C2O)c2ncnc(N)c12 (stereo not drawn)	-0.2	-11%	7	-17	-4
CCN(CC)CCN1C(=O)C(=O)/C(=C(/O)c2cnn(-c3ccccc3)c2C)C1c1cccnc1 (stereo not drawn)	0.7	-4%	-22	3	-2
CC(NCC(O)COC1CCC(C(C)(C)C)CC1)c1ccccc1 (stereo not drawn)	-0.4	78%	.	-27	78
CC(C)=CCc1c(O)cc2c(=O)c3ccc(O)cc3oc2c1O	4.4	4%	.	.	-8
O=C(O)c1cc2ccccc2c(=O)s1	-2.3	0%	-13	1	-13
Cc1onc(-c2c(Cl)cccc2Cl)c1C(=O)c1ccccc1	9.3	-5%	.	.	8
O=C(Cn1ncc(Cl)c(Cl)c1=O)N1CCN(Cc2ccccc2)CC1	20	-1%	.	-36	.
CCOc1cc(CNn2cnnc2)ccc1OCC(=O)NC1CCCCC1	-0.1	-7%	-27	8	-3
CCOc1ccccc1NC(=O)CNC(=O)Cc1ccccc1	-3.1	3%	.	0	-3
CCC(C)N=C1Sc2nc3ccc(C)cc3cc2CN1CCOC (stereo not drawn)	-2.3	-6%	.	3	6
COCc1nnc(NC(=O)c2ccc(S(=O)(=O)N3CCOCC3)cc2)o1	-0.7	.	.	.	19
CCCc1nn(C)c(C(=O)Nc2cccc(Cl)c2)c1Cl	-0.3	-3%	-9	5	-2
Nc1ccc(/C=C/c2ccc3ncccc3c2)cc1	-5.4	18%	.	.	7
CC(OC(=O)c1oc2ccccc2c1CSC1CCCCC1)C(=O)NC(N)=O (stereo not drawn)	-0.8	-1%	-21	-7	?
Oc1ccccc1-n1c(-c2ccccc2)ccc1-c1ccccc1	1.0	19%	.	.	4
O=C(CCc1ccc(O)c(O)c1)NNC(=S)Nc1ccc(Br)cc1Cl	-5.3	-8%	.	-10	3
COc1ccc(N(CC(=O)NCC2CCCO2)S(=O)(=O)c2ccccc2)cc1OC (stereo not drawn)	-0.9	.	.	.	-7

Looked up one by one from above:
SMILES	RecA intein inh	Mtb H37Rv	YopH PTP inh	Arbovirus anti	Mtb bLac sens	others
CCN(CC)CCN1C(=O)C(=O)/C(=C(/O)c2cnn(-c3ccccc3)c2C)C1c1cccnc1 (stereo not drawn)	0.7	-4%	-22	3	-2
O=C(CSc1nnc(-c2ccccc2F)n1CCc1ccccc1)Nc1ccc2[nH]c(=O)[nH]c2c1	5.9	0%	-7	9	4

Next part.
SMILES	RecA intein inh	Mtb H37Rv	YopH PTP inh	Arbovirus anti	Mtb bLac sens	others
CCC(C)C(NC(=O)c1ccccc1NC(=O)c1ccco1)C(=O)O (stereo not drawn)	-0.1	-9%	-43	5	-5
C#CCNC(=O)C1=C[C@H](c2cn(C(C)=O)c3ccccc23)C[C@H](OCc2ccc(CO)cc2)O1	-5.8	1%	.	31*	4
Cc1ccc(-c2nc3ncccn3c2NC(=O)C2CC2)cc1	-3.2	-12%	-5	4	0
O=C(COc1c(Cl)cccc1Cl)NN1C(=O)CSC1=S	6.1	-8%	.	1	-2
COc1ccccc1C(=O)NCCC(=O)N(C)Cc1cccs1	-0.3	.	.	.	-5
C/C(=N\NC(=S)Nc1ccc(F)cc1)c1ccc2c(c1)OCCO2	3.3	?	-37	-20	88
COc1ccc(NC(C)C(=O)N/N=C/c2cc(Br)ccc2OC)cc1 (stereo not drawn)	-2.3	1%	.	-6	3
Fc1ccccc1CNC(=S)NC1CCCCC1	0.8	.	.	.	-2
Nc1ccc2ccc3cccc[n+]3c2c1	i	.	.	.	0
O=C(C1CCC1)N1CCc2cc(S(=O)(=O)N3CCc4ccccc4C3)ccc21	-0.3	-2%	6	.	-1
Cn1c(=O)c2c(nc(CN3CCN(C(=O)c4ccco4)CC3)n2Cc2ccccc2F)n(C)c1=O	0.5	0%	-20	-6	4	Arbovirus anti repeat=-3
COc1ccc(N2CCN(C(c3cccs3)C(C)NC(=O)c3ccco3)CC2)cc1 (stereo not drawn)	-0.8	-4%	-9	-7	-5
Cc1ccc(SCCC(=O)NCc2ccccn2)cc1	-1.0	-3%	.	8	1
Cc1ccc(N=Cc2c(O)c3ccccc3oc2=O)c(C)c1	-5.3	.	.	.	2

Already shown: an excerpt of the list.
SMILES	RecA intein inh	Mtb H37Rv	YopH PTP inh	Arbovirus anti	Mtb bLac sens	others
COC(=O)c1ccc(NC(=S)NCCCn2ccnc2)cc1	1.0	-2%	.	0	-7
CC(=O)NCCC(=O)Nc1nc(C)c(Cc2ccc3c(c2)OCO3)s1	-0.8	10%	-41	8	0
CC(=O)Nc1sc2c(c1CN1CCCC1)CCCC2	-0.2	-3%	.	.	2
Cc1nnc(NCc2cccc(Cl)c2)c2ccccc12	0.3	.	.	.	22
CC(=O)c1ccc(NC(=O)C(C)OC(=O)c2ccc(NS(=O)(=O)c3ccc(F)c(F)c3)cc2)cc1 (stereo not drawn)	1.9	-6%	-46	5	-16
CC1CCCCN1C(=O)c1ccc(CS(=O)(=O)Cc2ccccc2)cc1 (stereo not drawn)	-1.0	.	.	.	-6
O=C(NCc1ccc(F)cc1)C1CC(=O)N(C2CCCCCCC2)C1 (stereo not drawn)	2.7	.	.	.	-3
CC12CCC(C(=O)Nc3cc(Cl)ccc3Cl)(C/C1=N\O)C2(C)C (stereo not drawn)	7.1	0%	-124	5	-5
Cc1csc(NC(=O)C2CCCC2)n1	-2.0	-12%	1	0	-6
O=C(O)/C=C/c1ccccc1Oc1ccc(Cl)cc1Cl	6.8	6%	.	21	-3
O=C(Cc1coc2ccc3ccccc3c12)NCc1cccs1	3.9	3%	-16	3	6
Nc1ccccc1Nc1cc(-c2ccccc2)[nH]n1	7.6	>100µM*	.	-6	.
C=CCN(c1ccc(C(=O)Nc2cccc(C)c2)cc1)S(C)(=O)=O	-2.0	0%	.	-3	-8
CCCCNCc1cc(Br)c(OCC(=O)N2CCOCC2)c(OC)c1	1.6	-1%	-55	-1	-12
Cc1ccc2nc(Nc3nc(CSc4nc5ccccc5s4)cc(=O)[nH]3)nc(C)c2c1	5.2	.	6	1	99
Fc1ccc(/C=C2\CCCC3=C2NC(=S)NC3c2ccc(F)cc2)cc1 (stereo not drawn)	.	0%	-23	8	.
CCN1CCN(Cc2c(O)ccc3c(C)cc(=O)oc23)CC1	-29	.	.	.	0
N=c1n(CCO)c2ccccc2n1Cc1ccc(Cl)cc1	-0.4	8%	-19	-13	-5
CCOc1ccccc1C1C2C(=O)N(c3ccccc3)C(=O)C2ON1c1ccccc1 (stereo not drawn)	-0.9	-10%	-34	3	17
COC(=O)c1cccnc1-n1c(=O)c2cccnc2n(Cc2cccc(C(F)(F)F)c2)c1=O	0.0	0%	.	-2	-1
COC(=O)c1ccc2c(=O)n(CC3CCCO3)c(SCC(=O)Nc3ccc(OC)cc3OC)nc2c1 (stereo not drawn)	0.8	-6%	.	.	-7
